From PubChem BioAssay
Rango-impB inh: inhibitors of Rango-importin beta complex formation. Rango CFP/YFP FRET sensor + importin beta, 45 min. Q14974. hit rate 0.031% among 340,000. Potency, µM (doses to about 92.2 µM), inactives show top-dose inhibition of complex formation. AID 540263; active = rising FRET ratio curve, often small or poorly fitted; inconclusive = mostly compound fluorescence or quenching in the first reads; inactive = flat curves in all reads;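 note: potency is the fitted concentration of half-maximal effect; 0% = DMSO wells and 100% = buffer wells lacking importin beta; nearly all actives have a fitted effect of over 15% in size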
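FRET biosensor Rango (snurportin 1 IBB between N-terminal EYFP and C-terminal Cerulean), 50 nM in PBS/1 mM DTT/0.02% Tween-20/0.1% BSA, preincubated 5 min RT with compound; 0.125 microM importin beta added, 45 min RT, CFP/YFP FRET ratio read.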
Rango release inh: inhibitors of RanGTP-induced Rango-importin beta complex dissociation. Potency, µM (top dose mostly 46.1 µM), for the others: at the top dose activity change, negative = inhibition. Biochemical FRET Rango-importin beta, RanGTP-induced dissociation. hit rate 0.071% among 340,000. O95149+P62826; active means falling FRET ratio curve, often poorly fitted, with flat reads before Ran was added; inconclusive means other falling curves, or compound fluorescence or quenching; inactive means flat or rising ratio curve;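 note: potency is the fitted concentration of half-maximal effect; % of control where 0% means no effect; nearly all actives have a fitted effect of over 45% in size; -100% = wells without RanGTP and RCC1; the record marks most hits as doubtful in a second field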
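Recombinant Rango FRET biosensor (EYFP–snurportin 1 IBB–cerulean CFP10) at 0.1 uM premixed with 0.25 uM importin beta in PBS, 1 mM DTT, 0.02% Tween-20, 0.1% BSA. Compound added 5 min; RanGTP-RCC1 (0.6 uM Ran, 2 mM GTP, 0.2 uM RCC1) then triggers release, read at 45 min.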
miR-21 reporter: raises the signal of a miR-21 reporter | HeLa miR-21 FLuc reporter, luciferase, 48 h | Potency, µM (series often up to 38.3 µM), inactives show at the highest dose reporter change, positive = more light | 340,000 tested, under 10 active | AID 2288; active = well fitted rising curve with a large enough effect; inconclusive = small, poorly fitted or top-dose-only effect; inactive = no such curve, though single readings can be large or run the other way;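 note: % of control where 0% means no effect; miR-21 action dims this reporter so a rising signal means less miR-21 action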
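Compounds were titrated across several concentrations (up to approximately 40 uM) and incubated 48 hours with HeLa miR-21-FLuc reporter cells (miR-21 target sequence downstream of FLuc, endogenous miR-21). Readout was firefly luciferase luminescence after lytic detection reagent.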
GLA inh pH 4.5: blocks human alpha-galactosidase A at pH 4.5; 230,000 tested, under 10 active; purified enzyme, 4-MU-alpha-Gal fluorescence, pH 4.5; P06280; activity change, negative = inhibition, % at 105 µM; inconclusive = small, poorly fitted or top-dose-only inhibition, or a rising curve; inactive = flat fitted curve, though single readings scatter; no compound was filed as active;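 note: 0% = full activity with enzyme and -100% = basal without enzyme; dose as in the result columns while the protocol names 77 µM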
Target sequence (P06280 whole entry, looked up): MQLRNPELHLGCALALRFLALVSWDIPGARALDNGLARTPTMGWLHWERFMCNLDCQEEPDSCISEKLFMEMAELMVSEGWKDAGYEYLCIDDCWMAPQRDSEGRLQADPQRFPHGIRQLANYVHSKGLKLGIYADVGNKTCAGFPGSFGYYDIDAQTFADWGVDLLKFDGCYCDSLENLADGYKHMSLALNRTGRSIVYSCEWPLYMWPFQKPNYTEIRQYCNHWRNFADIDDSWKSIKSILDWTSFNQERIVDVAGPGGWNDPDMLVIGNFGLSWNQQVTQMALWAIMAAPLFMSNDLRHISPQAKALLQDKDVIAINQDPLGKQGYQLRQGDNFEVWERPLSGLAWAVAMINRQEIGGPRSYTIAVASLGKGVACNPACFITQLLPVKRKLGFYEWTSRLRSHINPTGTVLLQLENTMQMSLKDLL
* = called active by the depositor; ? = inconclusive; · = no result given; & = joins results of further samples.

SMILES	Rango-impB inh	Rango release inh	miR-21 reporter	GLA inh pH 4.5
Cc1nc2c(-c3ccccc3)c(C)nn2c(C)c1CCC(=O)O	?	-1.5%	-3.4%	3.0
O=c1cc(CSc2nnc(-c3cccs3)n2Cc2ccccc2)nc2sc3ccccc3n12	-2.9%	-6.0%	22.0%	-0.1
CCn1cc(C(=O)NCc2ccc(OC)cc2)c(=O)c2ccc(C)nc21	0.6%	1.2%	-4.4%	·
c1ccc(COCCCn2cc(-c3ccccc3)nn2)cc1	0.7%	7.7%	-10.8%	·
CCOc1ccc(/C=N/NC(=O)c2ccc(Cn3cc([N+](=O)[O-])cn3)o2)cc1	-0.2%	2.2%	-38.6%	-2.0
Cc1cc(OC(C)C(=O)NCCCN2CCOCC2)c2c(C)cc(=O)oc2c1 (centres undefined)	-0.1%	-8.4%	0.1%	·
CCC(=O)N1CCc2cc(S(=O)(=O)CCC(=O)Nc3cccc(C)n3)ccc21	3.9%	?	1.4%	2.3
C=CCN1C(=O)[C@]2(c3ccccc31)C1CCCC=C1C(C#N)=C(N)C2(C#N)C#N (some centres undefined)	?	?	1.7%	-4.4
Cc1nnc(SCC(=O)NNC(=O)c2ccc(Br)cc2)n1C	0.4%	6.3%	4.5%	5.6
N=C(N)SCc1nc2ccccc2c(=O)n1-c1ccccc1	?	?	-49.1%&-47.7%	10.9&-4.2
CCCCC(C(=O)O)C(C)CC(=O)Nc1nncs1 (centres undefined)	2.6%	13.6%	-14.9%	-10.9
COc1ccc(S(=O)(=O)N2CCN(c3nc4ccccc4nc3-n3nc(C)cc3C)CC2)cc1	·	·	2.3%	-8.9
O=C(Cn1nc(-c2ccc3c(c2)OCCO3)ccc1=O)Nc1ccc(N2CCOCC2)cc1	·	·	-8.8%	-13.9
CCC(C(=O)Nc1c2c(nn1C(C)(C)C)CS(=O)(=O)C2)c1ccccc1 (centres undefined)	-3.3%	-1.5%	-4.1%	·
O=C(CC1C(=O)NCCN1Cc1ccc(-c2ccccc2)cc1)NCCOc1cccnc1 (centres undefined)	-3.1%	-12.7%	5.7%	-4.1
CC(CNc1ccccc1O)C(=O)O (centres undefined)	-1.3%	9.5%	0.7%	4.9
COC(=O)c1c(NC(=O)CCNCc2ccco2)sc2c1CCC2	-2.6%	6.7%	-9.9%	-3.8
CNc1c([N+](=O)[O-])cnn1-c1ccc(F)cc1	1.8%	-13.6%	-14.4%	-6.7
Cc1ccc(NC(=O)CSc2ncc(-c3ccccc3)n2C(=O)c2ccccc2)cc1	2.8%	-5.8%	-38.6%	-11.0
CC(C)=CCCC1(C)C=Cc2c(ccc3c2[nH]c2cc(O)c(C)cc23)O1 (centres undefined)	5.8%	-6.4%	0.3%	-3.9

Individual results from above:
For GLA inh pH 4.5, CC(C)=CCCC1(C)C=Cc2c(ccc3c2[nH]c2cc(O)c(C)cc23)O1 (centres undefined) is listed with -3.9
For miR-21 reporter, CCC(C(=O)Nc1c2c(nn1C(C)(C)C)CS(=O)(=O)C2)c1ccccc1 (centres undefined) is listed with -4.1%
For Rango-impB inh, CCCCC(C(=O)O)C(C)CC(=O)Nc1nncs1 (centres undefined) is listed with 2.6%
For GLA inh pH 4.5, N=C(N)SCc1nc2ccccc2c(=O)n1-c1ccccc1 is listed with 10.9&-4.2
For Rango-impB inh, CCn1cc(C(=O)NCc2ccc(OC)cc2)c(=O)c2ccc(C)nc21 is listed with 0.6%
For miR-21 reporter, c1ccc(COCCCn2cc(-c3ccccc3)nn2)cc1 is listed with -10.8%
For Rango-impB inh, CNc1c([N+](=O)[O-])cnn1-c1ccc(F)cc1 is listed with 1.8%

Part of the list above in another layout:
| canonical_smiles | Rango-impB inh | Rango release inh | miR-21 reporter | GLA inh pH 4.5 |
| --- | --- | --- | --- | --- |
| COC(=O)c1c(NC(=O)CCNCc2ccco2)sc2c1CCC2 | -2.6% | 6.7% | -9.9% | -3.8 |
| CNc1c([N+](=O)[O-])cnn1-c1ccc(F)cc1 | 1.8% | -13.6% | -14.4% | -6.7 |
| Cc1ccc(NC(=O)CSc2ncc(-c3ccccc3)n2C(=O)c2ccccc2)cc1 | 2.8% | -5.8% | -38.6% | -11.0 |
| CC(C)=CCCC1(C)C=Cc2c(ccc3c2[nH]c2cc(O)c(C)cc23)O1 (centres undefined) | 5.8% | -6.4% | 0.3% | -3.9 |

By substructure, the entries above containing a COOH group
SMILES	Rango-impB inh	Rango release inh	miR-21 reporter	GLA inh pH 4.5
Cc1nc2c(-c3ccccc3)c(C)nn2c(C)c1CCC(=O)O	?	-1.5%	-3.4%	3.0
CCCCC(C(=O)O)C(C)CC(=O)Nc1nncs1 (centres undefined)	2.6%	13.6%	-14.9%	-10.9
CC(CNc1ccccc1O)C(=O)O (centres undefined)	-1.3%	9.5%	0.7%	4.9

(continued)
SMILES	Rango-impB inh	Rango release inh	miR-21 reporter	GLA inh pH 4.5
CCC1CCCCN1CCCNC(=O)C1CCC(Cn2c(=O)[nH]c3ccccc3c2=O)CC1 (centres undefined)	-0.8%	0.2%	-3.4%	4.2
CC(C)c1ccc(NC(=O)C(c2ccccc2)N2CCN(C=O)CC2)cc1 (centres undefined)	3.0%	-8.1%	-8.8%	7.7
Cc1cc(NC(=O)CCN2C(=O)/C(=C\c3ccccc3Cl)SC2=S)no1	?	9.9%	1.1%	-0.1
Cc1ncsc1CCSc1nc2ccccc2c(=O)n1C	-0.2%	1.0%	-2.3%	-2.2
CCCCOCCCNC(=O)c1cccc(OC)c1	-6.5%	-16.5%	-7.4%	8.6
CC(=O)NC1=NN(C(C)=O)C(C)(c2ccccc2)S1 (centres undefined)	1.7%	-8.1%	18.9%	-2.4
O=C(O)c1ccc(N2C(=O)CC(Cc3ccccc3)C2=O)cc1 (centres undefined)	-0.5%	-7.7%	-4.0%	8.8
CS(=O)(=O)NCCOc1ccc(S(=O)(=O)N2CCCc3ccccc32)cc1	0.8%	9.2%	11.4%	-10.1
C[C@H]1CN([C@@H](C)CO)C(=O)Cc2cc(NS(=O)(=O)c3cn(C)cn3)ccc2O[C@@H]1CN(C)C(=O)Nc1ccc(F)cc1	-1.9%	0.2%	·	·
COc1ccc(C(CNC(=O)CNC(=O)c2ccc(F)cc2)N2CCCC2)cc1 (centres undefined)	-3.2%	-10.1%	·	·
COc1ccc(/C=N/N=C2/NC(=O)C(CC(=O)O)S2)cc1OCc1ccc(Cl)cc1 (centres undefined)	2.5%	-1.2%	-5.2%	-15.1
CCO[C@@H]1OC(C(N)=O)=C[C@H](c2cn(C(C)=O)c3ccccc23)[C@H]1CCCO	1.9%	9.2%	-0.7%	-0.3
Cc1ccc(-c2[nH]nc3c2C(c2ccsc2)C(C#N)=C(N)O3)cc1 (centres undefined)	0.2%	3.9%	1.9%	-2.2
CN1c2cccc3cccc(c23)N(C)C1(C)C	0.6%	-19.3%	6.0%	-2.1
Cc1ccc(Cl)cc1NC(=O)CC1NCCNC1=O (centres undefined)	-4.9%	-7.0%	0.8%	4.6
Cc1cc(OC(F)F)ccc1NC(=S)NCCc1ccccc1	-0.2%	9.4%	5.7%	·
Cc1ccc(-n2c(C)nnc2SCC(=O)Nc2ccccc2)cc1	0.2%	-11.0%	-0.6%	-3.0
O=C(Nc1cc(S(=O)(=O)N2CCOCC2)ccc1N1CCOCC1)c1ccccc1F	2.5%	-17.4%	·	·
CC(C(=O)Nc1ccc(F)c(F)c1F)N(C)Cc1cccs1 (centres undefined)	-2.2%	1.7%	-4.0%	·
COc1cccc(C(C(=O)NC2CCCC2)N(Cc2ccco2)C(=O)c2ccco2)c1OC (centres undefined)	1.8%	?	-2.3%	-1.8
COc1ccc(Cl)cc1C(=O)NNC(=O)COC(=O)c1ccc(Br)o1	0.4%	7.5%	·	·
COc1cc(C2C3=C(COC3=O)Oc3cc4c(cc32)OCO4)cc(OC)c1O (centres undefined)	-1.2%	-10.1%	·	·
COc1ccccc1N1CCN(S(=O)(=O)c2cccs2)CC1	1.7%	4.0%	-0.6%	9.2
Cc1ccc(C)c(-c2csc(NC(=O)c3c(C)noc3C)n2)c1	-3.2%	-3.8%	·	·
COc1ccc([C@@H]2[C@@H]3C(=O)N(C(C)(C)C)C(=O)[C@@H]3[C@]3(C)C(=O)N(c4cccc(C)c4)C(=O)N23)cc1	-3.3%	-4.6%	-1.7%	·
Cc1cc(N)n(-c2ccccc2)n1	-1.0%	8.0%	-2.1%	2.1
COC(CNC(=O)C1CCCN1C(=O)OCc1ccccc1)OC (centres undefined)	-0.9%	2.2%	-0.9%	-7.7
O=C(CN1C(=O)c2ccccc2C1=O)Nc1ccccc1N1CCOCC1	-5.0%	1.7%	-1.3%	-4.7
CC(C)(C)C(=O)NNC(=O)c1cnccn1	1.5%	7.8%	0.0%	5.2
Nc1nonc1-c1noc(CCCOc2ccc(Cl)cc2Cl)n1	-5.7%	-2.6%	-3.1%	4.1
O=C(CNS(=O)(=O)c1cccs1)NCc1ccc(F)cc1	?	-7.8%	-1.1%	-23.1
COc1ccccc1-c1nc(SCc2ccccn2)n[nH]1	-0.3%	-10.0%	-41.7%	1.0
CCN(C(=O)c1cc2c(=O)n3ccccc3nc2n1C)C1CCCCC1	?	?	-70.9%	·
COc1cc(OC)c(C2CC(=O)N3CN(c4ccccc4)CSC3=C2C#N)cc1OC (centres undefined)	?	?	-10.1%	-7.9
CC(C)CC(C(=O)NCc1ccccn1)N1C(=O)c2ccccc2C1=O (centres undefined)	6.1%	4.5%	-6.0%	5.8
O=C(c1ccccc1)c1cc(F)c(N2CCOCC2)cc1Cl	-2.0%	6.7%	-10.5%	9.0
COc1cc(NC(=O)c2ccccc2)c(OC)cc1NC(=O)Cc1ccc(Br)cc1	1.3%	0.8%	-1.2%	·
CCC(C)NS(=O)(=O)c1ccc(OCC(=O)Nc2ccc(F)cc2F)cc1 (centres undefined)	3.2%	9.9%	-1.1%	-23.3
CCOC(=O)c1cc(NC(=O)Nc2cc(C)ccn2)c(C)nc1C	-4.7%	19.7%	-10.6%	-1.5
CCN(CC(=O)NCCc1ccc(S(N)(=O)=O)cc1)Cc1nc2ccccc2c(=O)[nH]1	?	-23.8%	-4.8%	4.3
CCn1c(=O)c2sccc2n(Cc2ccc(C)cc2)c1=O	1.9%	-1.4%	-0.1%	·
CCCOc1cccc(C(=O)NCCCNC(=O)c2ccccn2)c1	-1.5%	5.2%	1.9%	·
COC1(NS(=O)(=O)c2ccc(Br)cc2)C(C)=CC(=O)C=C1C	-0.1%	-3.6%	-1.3%	5.6
Cc1cc(=O)[nH]c(N=N/C(=N/Nc2ccc(O)cc2)c2ccccc2)n1	0.5%	6.6%	-20.9%	6.2
Cc1oc2c(CN(C)C)c(O)ccc2c(=O)c1-c1ccc2ccccc2n1	4.5%	22.1%	-1.5%	6.5
Cc1ccc(N2C(=O)NC3(CCCCC3)C2=O)cc1	0.5%	-5.8%	-27.7%	9.1
OCCN1CCN(Cc2cccc(Oc3ccc(Cl)cc3)c2)CC1	5.1%	-0.6%	-10.9%	-6.9
COc1ccccc1N1CCN(Cc2nnnn2CCc2ccccc2)CC1	0.4%	0.5%	-5.7%	-8.8
O=c1c2ccccc2nc(N/N=C/c2ccccc2)n1O	-1.8%	1.0%	-8.5%	1.2
CC(=O)Nc1cccc(C(=O)OC(C)C(=O)N2CCc3ccccc32)c1 (centres undefined)	2.1%	6.5%	·	·
O=c1[nH][nH]c(=O)c2cc([N+](=O)[O-])ccc12	-0.1%&-0.1%	-1.7%&0.5%	·	·

The list is partial; rates above refer to the full screens.
